UCH37 inh: inhibitors of human UCH37 deubiquitinase, primary screen, biochemical, Ub-AMC cleavage, fluorescence | Ubiquitin carboxyl-terminal hydrolase isozyme L5 (Homo sapiens), Q9Y5K5 | purified proteasome/UCH37 | inhibition, % (no concentration beside the values) | 0.33% of 330,000 active | AID 588478, 2011;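 active = mean of two replicates above 20%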;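 note: 0% = compound-free wells with enzyme and 100% = wells lacking proteasome; stock transfer was 100 nL into about 20 µL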
Target sequence (Q9Y5K5 whole entry, looked up): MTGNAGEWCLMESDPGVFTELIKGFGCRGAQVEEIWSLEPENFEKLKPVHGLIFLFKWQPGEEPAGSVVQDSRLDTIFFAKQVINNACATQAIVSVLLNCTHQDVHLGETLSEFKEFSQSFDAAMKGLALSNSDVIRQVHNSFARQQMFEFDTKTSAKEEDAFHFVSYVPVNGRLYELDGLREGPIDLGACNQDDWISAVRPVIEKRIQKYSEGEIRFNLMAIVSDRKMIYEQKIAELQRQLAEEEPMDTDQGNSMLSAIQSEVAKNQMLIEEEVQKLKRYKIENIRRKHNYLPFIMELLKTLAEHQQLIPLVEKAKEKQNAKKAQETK
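Material: Human UCH37 enzyme supplied as purified proteasome complex | Schedule: 30 min preincubation with enzyme, 25 min cleavage at room temperature | Detection: AMC fluorescence 355/460 nm | Measure: % inhibition of Ub-AMC cleavage fluorescence | Controls: Wells without proteasome as full block, compound-free enzyme plus substrate as uninhibited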
LANA-H2B inh: blockers of LANA interaction with H2A/H2B – biochemical, FP readout, HTS, primary screen. Protein LANA1 (Human herpesvirus 8 type P (isolate GK18)), Q9QR71. cell-free LANA-H2A/H2B peptide, fluorescence polarization. inhibition, % (test concentration not listed). 0.6% of 320,000 active. AID 2629, 2010; in the data active = inhibition mostly above about 10%, no sharp cut-off; inactive = mostly below about 6.7%;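 note: stock transfer was 7.5 nL into about 10 µL; 0% = median of vehicle wells and 100% = median of positive control wells; one replicate is shown; the record names a cut of 25% in any replicate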
B2AR ag: beta2AR agonists driving receptor internalization, primary screen, cell-based, FAP fluorogen, flow cytometry; Beta-2 adrenergic receptor (Homo sapiens), P07550; Am2.2-beta2AR cells; reference of the scale not given here; response, % (no concentration beside the values); 0.43% of 340,000 active; AID 504454, 2011;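 active = response above a set limit, near 3 SD of response in nonfluorescent compounds, cut at about 42% in these data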;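 note: stock transfer was 100 nL into about 11 µL; a reference agonist was the positive control; negative values mostly stem from fluorescent compounds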
Target sequence (P07550 whole entry, looked up): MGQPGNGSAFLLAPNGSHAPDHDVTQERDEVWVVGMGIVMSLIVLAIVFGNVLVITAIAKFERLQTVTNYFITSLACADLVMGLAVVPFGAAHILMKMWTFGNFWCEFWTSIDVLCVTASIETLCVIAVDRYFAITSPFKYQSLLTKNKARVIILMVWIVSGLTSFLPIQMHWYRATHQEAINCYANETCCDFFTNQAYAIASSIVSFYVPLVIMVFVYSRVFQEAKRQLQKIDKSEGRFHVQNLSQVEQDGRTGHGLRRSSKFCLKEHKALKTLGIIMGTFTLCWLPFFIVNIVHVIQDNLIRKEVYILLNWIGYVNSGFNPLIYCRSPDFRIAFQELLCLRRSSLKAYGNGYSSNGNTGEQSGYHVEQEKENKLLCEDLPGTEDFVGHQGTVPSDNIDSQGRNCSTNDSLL
Vif A3G: inhibitors of Vif binding to APOBEC3G peptide, primary screen, biochemical, TR-FRET, GST-Vif 1-94, biotin-A3G peptide, dose response retest (AID 1117319); Virion infectivity factor (Human immunodeficiency virus type 1 group M subtype B (isolate …; inhibition, %; hits with a dose series show IC50 in µM; 0.57% of 260,000 active; TR-FRET GST-Vif / biotin-A3G peptide binding; higher % means a stronger effect; test concentration not given here; strong numbers were not always called active;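 active = above the screen mean plus three standard deviations and confirmed in dose response; inconclusive = results disagree or hit not tested in dose response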;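 note: Vif residues 1-94 fused to GST binding biotinylated APOBEC3G peptide 110-148; 0% = full assay without inhibitor and 100% = GST in place of GST-Vif; retest series ran down from 100 µM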
E coli growth: E. coli growth inhibition, primary screen, OD600 | Escherichia coli growth, 23 h; stronger effect = lower value | 0.21% of 330,000 active | OD600 absorbance (concentration not given with the values) | AID 1053175, 2014;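 active = OD600 absorbance below the run mean of sample wells minus 3.6 SD, in any replicate, cut at about 0.56 in these data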;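 note: stock transfer was 300 nL into about 60 µL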
A1 inh: caspase 3/7 activation in MEF A1-2A-BIM cells, primary screen, A1 inhibitor project, cell-based, luminescence, HTS. Caspase-Glo 3/7 luminescence, 3 h; percent of clofoctol response, vehicle zero. caspase activation, % (no concentration beside the values). 0.066% of 330,000 active. AID 2462, 2010;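 active = over half of replicate activation scores above 10%, or exactly half above 10 with the replicate mean above 10; inconclusive = replicate mean below 10 yet half the replicates above 10; inactive = over half of replicates below 10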;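 note: wells of about 30 µL received 50 nL stock; many hits fall short of the cut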
HNF4A DNA FP: change in binding of human HNF4A to DNA, primary screen, biochemical, fluorescence polarization, FITC-DNA | 0.3% of 360,000 active | Hepatocyte nuclear factor 4-alpha (Homo sapiens), P41235 | activity change, % at 10 µM | 1 h; in the data active = activity change above about 30%, passing the limit was not always enough;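 note: controls were the assay level and a saturating level of protein; the project sought stronger binding though the title names inhibitors; some compounds called inactive have numbers as strong as hits; positive values seem to mean higher polarization but the record does not say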
An asterisk follows results filed as active; u = inconclusive; x = no result given.

cpd	canonical_smiles	UCH37 inh	LANA-H2B inh	B2AR ag	Vif A3G	E coli growth	A1 inh	HNF4A DNA FP
1	COc1c(C)cccc1C(=O)Nc1ccc(OCC(=O)N2CCOCC2)cc1C	1.0	-1.8	-4	4%	0.72	0.1	3.6
2	COC(=O)c1c(NC(NC(=O)c2ccccc2)(C(F)(F)F)C(F)(F)F)sc2c1CCN(C)C2	-6.1	6.2	1	-2%	0.7	1.6	4.7
3	Cc1cccc(-n2c(C)cc(/C=N/NC(=O)c3ccc(CN4CCOCC4)cc3)c2C)c1	x	-4.4	12	17%	x	-0.1	4.7
4	OCC1(Cc2ccccc2)CCN(Cc2cc3ccccc3o2)CC1	2.5	1.1	4	-1%	0.67	0.0	0.1
5	O=C(CCc1ccccn1)N1CCCC(Nc2ccc(F)cc2)C1 (stereo not given)	3.5	4.3	-6	x	0.66	-0.4	-0.7
6	CN(c1ccc(C(=O)NCc2cccnc2)cc1)S(C)(=O)=O	2.2	3.8	-8	u	0.73	-0.7	1.0
7	NC(=O)c1nsc(C(=O)N(Cc2ccccc2Cl)C(C(=O)NCC2CCCO2)c2ccc(O)cc2)c1N (stereo not given)	-76	x	5	x	0.69	x	-2.2
8	Cc1ccc(S(=O)(=O)N2CCCCC2)cc1NC(=O)COC(=O)Cc1c(F)cccc1Cl	3.3	1.5	-3	x	0.68	0.6	-0.9
9	COc1ccc(Cc2nc3ccc(C(=O)N(C)Cc4cc(C)[nH]n4)cc3o2)cc1OC	4.3	-4.4	7	x	0.71	0.3	3.6
10	O=C(Cn1nnc2ccccc21)OCc1ccccc1	0.0	1.0	0	x	0.59	-0.3	4.2
11	CC(C)(C)c1nc(N2CCN(C(=O)c3ccco3)CC2)c2nnn(Cc3ccccc3)c2n1	-1.4	1.0	6	16%	0.74	-0.1	5.5
12	O=C(NCC(c1ccco1)N1CCc2ccccc2C1)C(=O)Nc1ccccc1F (stereo not given)	-1.5	3.2	-3	2%	0.7	0.6	-1.6
13	CC1Cc2ccccc2N1C(=O)CN1C(=O)NC(C)(c2ccc3c(c2)OCCO3)C1=O (stereo not given)	6.0	3.3	-4	17%	0.71	0.8	3.5
14	C/C(=N\NC(=O)c1nnn(-c2nonc2N)c1-c1ccc2c(c1)OCO2)c1ccc(C)cc1	x	-0.4	5	x	x	0.9	2.1
15	COc1ccc(C(=O)NNC(=O)COc2ccc(Cl)cc2C)cc1S(=O)(=O)N1CCOCC1	-1.2	-4.3	-3	-3%	0.73	-1.3	3.7
16	CCn1c(SCC(=O)NC2CC2)nnc1-c1csc(C)c1	0.4	-3.9	-6	-1%	0.64	-0.6	0.2
17	CCOC(=O)c1cn(C2CC2)c2c(F)c(F)c(F)cc2c1=O	1.3	1.7	0	3%	0.71	-0.1	-1.4
18	CCOC(=O)N1CCN(S(=O)(=O)c2ccc(C(=O)Nc3sc4c(c3C#N)CCC4)cc2)CC1	-27	6.4	-2	-8%	0.68	0.0	6.1
19	CCOC(=O)C1C(CC)NC(=S)NC1(C)O (stereo not given)	2.3	5.5	-2	-2%	0.63	0.4	-0.3
20	Cc1ccccc1NC(=S)N/N=C/c1ccc(O)cc1O	x	-2.5	3	19%	x	-0.4	2.9
21	Cc1ccc(-c2ccc(/C=N\NC(=O)C3C(=O)NCC3c3ccccc3)o2)cc1Cl (stereo not given)	x	-2.1	8	-4%	x	0.3	1.8
22	O=C(Cn1ncc2c3ccccc3n(Cc3ccccc3)c2c1=O)NCCCN1CCCC1	-10	4.1	10	-4%	0.64	u	-1.4
23	O=C(c1ccccc1Oc1ccccc1)N1CCN(c2ccc(F)cc2)CC1	4.3	1.8	6	31%	0.67	-0.1	1.8
24	CCOc1cc([N+](=O)[O-])c2nc(N)sc2c1	1.5	2.5	-2	5%	0.69	-0.5	2.4
25	COc1ccc(-c2csc(N3CCC(C(N)=O)(N4CCCCC4)CC3)n2)cc1	-0.2	16	2	-6%	0.68	0.6	1.1
26	CCOc1ccccc1C(=O)NCCCCCC(=O)O	2.3	2.9	4	-5%	0.71	-0.3	-0.3
27	Cc1ccc(OC(=O)C2CCN(C(=O)c3ccccc3C)CC2)c(Br)c1	x	-6.2	6	x	x	3.3	-3.7
28	COc1ccccc1CC(=O)NNC(=O)c1ccc(C(C)(C)C)cc1	1.0	-7.8	5	x	0.71	0.0	4.2
29	C/C(=N\Nc1ccc(F)cc1F)c1ccccc1O	x	4.4	2	3%	x	0.9	-0.4
30	Cc1sc(NC(=O)COc2ccccc2)c(C#N)c1-c1ccccc1	1.4	1.8	-2	x	0.7	-0.4	3.2
31	O=c1cc(CN2CCc3ccccc32)nc2sccn12	-0.2	0.9	-9	23%	0.73	-0.2	1.4
32	CN(C)c1nc(Oc2ccc(=O)[nH]n2)nc(N2CCCCC2)n1	-3.3	-2.1	-16	33%	0.67	-1.1	1.3
33	Cc1cccc(N(C(=O)Nc2ccccc2)C2=NCC(C)S2)c1 (stereo not given)	5.6	-4.4	3	u	0.7	-0.2	0.4
34	COc1cccc(Oc2ccc3nnc(C(F)(F)F)n3n2)c1	-0.2	-5.9	6	7%	0.69	-0.2	-3.1
35	Cc1c(C(=O)NCCSCc2cccc(C(F)(F)F)c2)cnn1-c1ccc(F)cc1	6.2	-5.1	-8	0%	0.66	0.9	0.2
36	C=CCNc1nc(-c2cc3ccccc3o2)cs1	-0.9	x	-3	x	0.63	-4.8	3.7
37	CCOc1ccccc1Nc1nc(-c2sc(C)nc2C)cs1	-1.2	-0.5	13	x	0.67	-0.3	-2.9
38	CCOC(=O)Cc1csc(NC(=O)C(C)Oc2ccc3c(C)cc(=O)oc3c2)n1 (stereo not given)	-7.5	-4.5	-4	13%	0.72	0.2	0.3
39	COc1ccc(/C=C2/C(=O)OCc3cc(OC)c(OC)cc32)c(OC)c1	6.3	2.2	2	5%	0.7	0.5	2.3
40	COc1ccc(CCN2C(=O)C(C)=C(C)C2=O)cc1OC	6.1	-1.5	0	x	0.67	-0.1	-0.6
41	CC(=O)Oc1ccc2c(=O)oc(-c3ccccc3C)nc2c1	-35	-5.2	-4	0%	0.67	-0.9	1.7
42	COc1ccc(NC(=O)CN(C)S(=O)(=O)c2cnc[nH]2)cc1Cl	0.6	-2.2	5	x	0.67	0.6	-3.1
43	CC(C)n1nc(C(=O)OCC(=O)c2c[nH]c3ccccc23)c2ccccc2c1=O	3.5	-4.3	6	5%	0.68	-0.6	1.9
44	CC(CC(=O)NCCc1ccc(Cl)cc1)S(=O)(=O)c1ccc2c(c1)NC(=O)CO2 (stereo not given)	-0.9	3.4	2	x	0.68	0.2	3.2
45	CSc1cccc(CN2CCN(Cc3ccccc3)C(CCO)C2)c1 (stereo not given)	2.1	-4.7	-4	x	0.66	0.7	0.4
46	COc1cccc(CNC(=O)CSc2nnc3c(n2)[nH]c2ccc(F)cc23)c1	4.2	-1.5	-15	x	0.62	0.4	0.6
47	CSCCC(C(=O)O)N1C(=O)c2ccc(C(=O)O)cc2C1=O (stereo not given)	1.0	7.0	-6	11%	0.71	-1.1	-1.3
48	COc1ccc(C2/C(=C(\O)c3cc(C)ccc3C)C(=O)C(=O)N2CCN(C)C)cc1OC (stereo not given)	7.3	0.2	-3	-2%	0.69	-0.6	0.3
49	Cc1ccc(Nc2nnc(C3C(=O)N(C)C4(C)CC3c3cc(Br)ccc3O4)s2)cc1 (stereo not given)	2.4	-3.7	-5	x	0.73	1.8	2.8
50	CCOC(=O)CC(NC(=O)Cc1ccccc1)c1ccccc1Cl (stereo not given)	4.9	5.4	-2	x	0.68	0.9	-5.2
51	Cc1c(C(Nc2ccccn2)c2ccc(Cl)cc2)c(=O)n(-c2ccccc2)n1C (stereo not given)	-0.4	-0.7	6	-5%	0.71	0.7	7.6
52	COc1ccc(NS(=O)(=O)c2cccc(C(=O)NNC(=O)c3cncc(Br)c3)c2)cc1	-1.9	0.4	-2	7%	0.64	-0.1	-0.7
53	CN(C)CCNC(=O)c1ccccc1-c1ccccc1	1.9	-5.6	1	-3%	0.77	-0.5	2.4
54	COc1ccc(S(=O)(=O)NC(C)C(=O)NCC2CCCO2)cc1OC (stereo not given)	3.3	-4.2	-2	x	0.68	0.7	-2.5
55	COCCn1c(C)cc(C(=O)COC(=O)/C=C/c2c(C)nn(C3CCS(=O)(=O)C3)c2Cl)c1C (stereo not given)	-0.4	9.2	-2	-2%	0.71	-0.3	5.4
56	COc1ccc(NC(=O)NCc2ccc(Cl)cc2)cc1	0.5	5.8	1	x	0.7	0.1	-0.6
57	CN(CC(=O)Nc1ccccc1C(F)(F)F)C(=O)c1ccc(N2C(=O)CCC2=O)cc1	3.3	-1.1	5	2%	0.62	0.0	-4.1
58	O=C1C(=O)c2ccccc2C(O)=C1c1ccccc1F	8.7	-5.0	-8	6%	0.67	1.6	-1.9
59	CCn1nc(C(=O)Nc2cccc(S(=O)(=O)N3CCCC3)c2)c2ccccc2c1=O	0.9	-2.7	11	x	0.68	-0.2	3.8
60	O=C(NNc1ccccc1)C(=O)NNc1ccccc1	5.5	x	8	0%	0.65	x	0.6

2 entries from above in another layout:
Screens in order – UCH37 inh	LANA-H2B inh	B2AR ag	Vif A3G	E coli growth	A1 inh	HNF4A DNA FP
43: CC(C)n1nc(C(=O)OCC(=O)c2c[nH]c3ccccc23)c2ccccc2c1=O
 : 3.5	-4.3	6	5%	0.68	-0.6	1.9
59: CCn1nc(C(=O)Nc2cccc(S(=O)(=O)N3CCCC3)c2)c2ccccc2c1=O
 : 0.9	-2.7	11	x	0.68	-0.2	3.8

Later entries
cpd	canonical_smiles	UCH37 inh	LANA-H2B inh	B2AR ag	Vif A3G	E coli growth	A1 inh	HNF4A DNA FP
61	O=C(COc1cccc2cccnc12)N/N=C/c1cccn1-c1ccc(F)cc1	x	0.3	-4	3%	x	1.0	2.3
62	CCCC(C)NC(=O)C1CCN(C(=O)C2CC(=O)N(c3ccc(C)cc3)C2)CC1 (stereo not given)	5.9	4.6	0	x	0.67	0.4	-0.5
63	CCOC(=O)C(=NC1CCS(=O)(=O)C1)NNc1ccc(Br)cc1 (stereo not given)	6.6	-5.4	-3	7%	0.68	1.8	0.1
64	CCC(C)C(=O)Nc1nc2ccc(S(C)(=O)=O)cc2s1 (stereo not given)	0.4	0.4	8	4%	0.67	0.1	-2.9
65	O=C(CSc1nc2ccccc2c(=O)n1-c1ccc(F)cc1)Nc1ccc(C(=O)O)cc1	3.5	-3.3	13	-2%	0.66	0.4	0.4
66	O=C(CCC(=O)Nc1ccccc1)NNC(=O)COc1ccccc1	1.3	-1.6	4	x	0.65	0.7	-1.7
67	O=C(Nc1ccc(F)cc1)c1ccc(C(=O)N2CCCC(O)C2)cc1 (stereo not given)	-0.1	-5.1	-2	x	0.7	0.1	6.1

Not a retest: 2 of the compounds above.
cpd	canonical_smiles	UCH37 inh	LANA-H2B inh	B2AR ag	Vif A3G	E coli growth	A1 inh	HNF4A DNA FP
1	COc1c(C)cccc1C(=O)Nc1ccc(OCC(=O)N2CCOCC2)cc1C	1.0	-1.8	-4	4%	0.72	0.1	3.6
2	COC(=O)c1c(NC(NC(=O)c2ccccc2)(C(F)(F)F)C(F)(F)F)sc2c1CCN(C)C2	-6.1	6.2	1	-2%	0.7	1.6	4.7

Source: PubChem (several laboratories)
